# Bioassay records (PubChem)
# Six1-Eya2 blk – blocks human Six1 binding to Eya2. Q15475+O00167. AID 651725. activity change, % (test concentration not listed). hit rate 0.56% among 360,000. AlphaScreen GST-Six1/His-Eya2 binding, biochemical; active compounds read low; control for the full effect not named in the record; in the data active = activity change below about -65%; inconclusive = about -30% to -65%; inactive = above about -30%
# Target sequence (O00167 whole entry, looked up): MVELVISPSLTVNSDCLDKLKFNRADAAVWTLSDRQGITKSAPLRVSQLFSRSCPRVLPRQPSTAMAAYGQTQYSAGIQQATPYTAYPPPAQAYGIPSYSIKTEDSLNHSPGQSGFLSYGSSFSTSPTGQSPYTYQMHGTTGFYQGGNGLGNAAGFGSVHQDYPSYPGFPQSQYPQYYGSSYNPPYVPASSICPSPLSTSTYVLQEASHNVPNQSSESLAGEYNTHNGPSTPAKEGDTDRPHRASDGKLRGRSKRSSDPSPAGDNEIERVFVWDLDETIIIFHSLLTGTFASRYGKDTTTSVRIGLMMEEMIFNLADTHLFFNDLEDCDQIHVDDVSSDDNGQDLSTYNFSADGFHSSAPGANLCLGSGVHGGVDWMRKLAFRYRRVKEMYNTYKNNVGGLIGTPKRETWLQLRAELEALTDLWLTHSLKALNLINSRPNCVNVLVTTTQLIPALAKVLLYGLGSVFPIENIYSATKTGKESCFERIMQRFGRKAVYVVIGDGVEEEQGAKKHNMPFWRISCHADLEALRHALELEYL
# Target sequence (Q15475 whole entry, looked up): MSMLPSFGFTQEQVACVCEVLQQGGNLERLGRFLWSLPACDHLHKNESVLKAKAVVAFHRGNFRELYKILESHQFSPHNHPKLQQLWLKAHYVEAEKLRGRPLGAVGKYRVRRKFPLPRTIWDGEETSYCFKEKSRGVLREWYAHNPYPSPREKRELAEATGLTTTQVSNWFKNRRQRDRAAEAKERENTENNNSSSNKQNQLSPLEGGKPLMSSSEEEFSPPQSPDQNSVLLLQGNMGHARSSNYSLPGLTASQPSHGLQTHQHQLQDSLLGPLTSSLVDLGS
#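 Compounds are tested against tagged Six1 and Eya2 proteins bridged by glutathione donor and nickel acceptor beads; after a one-hour incubation at 37 °C without light, AlphaScreen emission is recorded.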
# CtBP-E1A blk – CtBP/E1A binding inhibition | AID 651724 | activity change, % (test concentration not listed) | AlphaScreen GST-E1A/His-CtBP binding, 1536-well; active compounds read low; control for the full effect not named in the record | hit rate 0.49% among 340,000; in the data active means activity change below about -65%; inconclusive means about -30% to -65%; inactive means above about -30%
#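 GST-E1A and His-tagged CtBP (125 nM each as 5X stock) were preincubated with pin-transferred compound for 2 h at 37 °C in the dark, then glutathione donor and nickel acceptor beads were added for 1 h before AlphaScreen reading.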
# * hit, by the source's call; ? = inconclusive. % is set by controls: 0 for no effect and ±100 for the full control effect. The list is partial. The share of hits here may be higher or lower than overall.
SMILES,Six1-Eya2 blk,CtBP-E1A blk
CC(C)n1nnnc1C1c2ccccc2C(=O)N1Cc1cccs1 (stereo not given),5,0
COc1ccc(CN2C(=O)c3ccccc3C2c2nnnn2-c2c(C)cccc2C)cc1OC (stereo not given),15,-1
CCCCCc1c(-c2ccccc2OC)ncn1CCc1ccccc1OC,-11,-1
O=C(Nc1ccc2c(c1)OCCO2)C1C(c2ccccc2)=Nc2ccccc2N1C(=O)c1cccnc1 (stereo not given),15,25
Cc1ccc(S(=O)(=O)N2CC3C(=O)C[C@@H](c4ccccc4Cl)N(S(=O)(=O)c4ccc(C)cc4)C3CC2c2ccccc2)cc1 (stereo not given in full),-4,-16
CCOC(=O)[C@]12CCC=C1N(Cc1cccc3ccccc13)C(=O)[C@H](CC(=O)NCc1cccc(C(F)(F)F)c1)C2,6,-16
CCCCn1nnnc1C(c1ccccc1)N1CCN(c2cc(C)ccc2C)CC1 (stereo not given),0,4
O=C1c2ccccc2C(c2nnnn2-c2ccc3c(c2)OCCO3)N1C1CC1 (stereo not given),6,-24
O=c1[nH]c(=S)[nH]c2c1[C@H](CCc1cccc(Cl)c1)O[C@H](C1CCCC1)C2,-13,-11
O=C1NC[C@@H](CCCCN2C[C@H](Cc3ccc(O)cc3)N(Cc3ccccc3)C(=O)C2=O)N(CC2CCCCC2)C1=O,-3,-2
CCC(C(=O)Nc1c(C)cccc1C)n1c(-c2ccc(=O)[nH]c2)nc2ccccc21 (stereo not given),-1,7
O=C1NC[C@@H](CCCCN2C[C@H](Cc3ccccc3)N(CCc3ccc(O)cc3)C(=O)C2=O)N(CC2CCCCC2)C1=O,8,3
O=C1N2CCCCC1(Sc1ccccc1)CCC2 (stereo not given),0,4
Cc1ccc(CN2C(=O)CCC2(C)c2nnnn2-c2ccc3c(c2)OCCO3)cc1 (stereo not given),-12,0
Cc1cccc(C)c1NC(=O)C(c1ccccc1)N1CCC(c2ccccc2)CC1 (stereo not given),0,-1
COc1cccc(-c2nc3nc(C)cc(C)n3c2Nc2ccc3c(c2)OCCO3)c1,-23,0
CCC(c1nnnn1-c1ccc2c(c1)OCCO2)N1CCN(CC)CC1 (stereo not given),1,0
CCCCCCCCN1C(=O)[C@H](CC(=O)NCc2ccc(C)o2)C[C@@]2(C(=O)OC)CCCCC=C12,8,21
CCOC(=O)N1CCN(C(=O)C[C@@H]2C[C@@]3(C(=O)OC)CCCCC=C3N(CCc3ccc(OC)c(OC)c3)C2=O)CC1,2,-10
CC(C)C[C@@H]1O[C@H](CCc2ccccc2)Cc2[nH]c(=S)[nH]c(=O)c21,-7,-2
COC(=O)[C@]1(Sc2ccc(C)cc2)CC(=O)N[C@@H]1c1ccco1,-9,-13
O=C(C(=O)N1CCN(c2ccccc2F)CC1)c1ccccc1,1,-1
O=C1Nc2ccccc2-n2nnnc2C1N1CCN(c2ccc(C(F)(F)F)cc2[N+](=O)[O-])CC1 (stereo not given),-20,0
COP(=O)(OC)OC(C(=O)c1ccccc1)c1ccccc1 (stereo not given),0,3
CC(=O)N1CCN(C(C(=O)Nc2c(C)cccc2C)c2cccc(F)c2)CC1 (stereo not given),14,-11
CSCc1cc(C(=O)NC2CC2)c(N)s1,-2,3
CN(Cc1ccncc1)C(=O)[C@@H]1CCCN1C(=O)[C@@H]1CCCN1,4,-17
COCCN1C(=O)COc2ccccc2C1C(=O)Nc1c(C)cccc1C (stereo not given),-1,5
COc1ccccc1CNC(=O)C[C@@H]1CC[C@H]2[C@@H](COC[C@H](O)CN2Cc2ccccc2)O1,1,-2
COC(=O)CCCn1cc(CN2CC(N3CCN(Cc4ccccc4F)CC3)CS2(=O)=O)nn1 (stereo not given),-8,4

# Given with values under each structure: part of the list above.
# Below each SMILES: Six1-Eya2 blk | CtBP-E1A blk
O=c1[nH]c(=S)[nH]c2c1[C@H](CCc1cccc(Cl)c1)O[C@H](C1CCCC1)C2
    -13 | -11
O=C1NC[C@@H](CCCCN2C[C@H](Cc3ccc(O)cc3)N(Cc3ccccc3)C(=O)C2=O)N(CC2CCCCC2)C1=O
    -3 | -2
CCC(C(=O)Nc1c(C)cccc1C)n1c(-c2ccc(=O)[nH]c2)nc2ccccc21 (stereo not given)
    -1 | 7
O=C1NC[C@@H](CCCCN2C[C@H](Cc3ccccc3)N(CCc3ccc(O)cc3)C(=O)C2=O)N(CC2CCCCC2)C1=O
    8 | 3
O=C1N2CCCCC1(Sc1ccccc1)CCC2 (stereo not given)
    0 | 4
Cc1ccc(CN2C(=O)CCC2(C)c2nnnn2-c2ccc3c(c2)OCCO3)cc1 (stereo not given)
    -12 | 0
Cc1cccc(C)c1NC(=O)C(c1ccccc1)N1CCC(c2ccccc2)CC1 (stereo not given)
    0 | -1
COc1cccc(-c2nc3nc(C)cc(C)n3c2Nc2ccc3c(c2)OCCO3)c1
    -23 | 0
CCC(c1nnnn1-c1ccc2c(c1)OCCO2)N1CCN(CC)CC1 (stereo not given)
    1 | 0
CCCCCCCCN1C(=O)[C@H](CC(=O)NCc2ccc(C)o2)C[C@@]2(C(=O)OC)CCCCC=C12
    8 | 21
CCOC(=O)N1CCN(C(=O)C[C@@H]2C[C@@]3(C(=O)OC)CCCCC=C3N(CCc3ccc(OC)c(OC)c3)C2=O)CC1
    2 | -10
CC(C)C[C@@H]1O[C@H](CCc2ccccc2)Cc2[nH]c(=S)[nH]c(=O)c21
    -7 | -2
COC(=O)[C@]1(Sc2ccc(C)cc2)CC(=O)N[C@@H]1c1ccco1
    -9 | -13
O=C(C(=O)N1CCN(c2ccccc2F)CC1)c1ccccc1
    1 | -1
O=C1Nc2ccccc2-n2nnnc2C1N1CCN(c2ccc(C(F)(F)F)cc2[N+](=O)[O-])CC1 (stereo not given)
    -20 | 0
COP(=O)(OC)OC(C(=O)c1ccccc1)c1ccccc1 (stereo not given)
    0 | 3
CC(=O)N1CCN(C(C(=O)Nc2c(C)cccc2C)c2cccc(F)c2)CC1 (stereo not given)
    14 | -11
CSCc1cc(C(=O)NC2CC2)c(N)s1
    -2 | 3
CN(Cc1ccncc1)C(=O)[C@@H]1CCCN1C(=O)[C@@H]1CCCN1
    4 | -17

# More compounds
SMILES,Six1-Eya2 blk,CtBP-E1A blk
COc1ccccc1Cc1c(-c2ccc(C#N)cc2)nc2c(Cl)cc(C(F)(F)F)cn12,-7,-4
CC(=O)N1Cc2cc(C(=O)NCC(F)(F)F)nc(-c3cccc(-c4cccnc4)c3)c2[C@H]1CCO,-6,-2
CCS(=O)(=O)N1Cc2cc(C(=O)N(C)C)nc(-c3cccc(-c4ccc(F)cc4)c3)c2[C@@H]1CCO,7,1
O=C1C(=Cc2ccc(Cl)cc2)Cc2ccccc21,5,4
CN(Cc1ccccc1)C(=O)[C@@H]1CCCN1C(=O)[C@@H]1CCCN1C(=O)c1cccc2ccccc12,1,4
O=C1CCCCCC(=O)[C@H](O)C[C@H](c2ccccc2)O1,-4,5
CC(C)(C)NC(=O)C(c1ccnc2ccccc12)n1c(=O)c(-c2ccccc2)nc2ccccc21 (stereo not given),-1,-4
COc1cccc(Cn2cnc(-c3ccccc3OC)c2C2CC2)c1,-5,-4
O=C(Nc1ccc2c(c1)OCCO2)C(c1ccncc1)n1c(=O)c(-c2ccco2)nc2ccccc21 (stereo not given),-18,4
CC(C)C[C@H]1CN([C@@H](Cc2ccccc2)CN2CCC[C@H]2CN2C(=O)C(=O)NC[C@@H]2Cc2ccccc2)C(=O)C(=O)N1CCc1ccccc1,0,3
O=C([C@H]1O[C@@H](n2ccc(=O)[nH]c2=O)[C@H](O)[C@@H]1O)N1CCN(Cc2ccccn2)CC1,4,8
O=C1NC[C@@H](CCCCN2CCN(Cc3ccccc3)C(=O)C2=O)N(Cc2ccccc2)C1=O,1,0
C[C@@H]1Cc2[nH][nH]c(=O)c2[C@H](C)O1,-1,0
COC(=O)C[C@@H]1CC[C@H](NC(=O)Nc2ccc(F)cc2)[C@@H](CO)O1,2,12
COc1cccc(C(=O)N2CCC[C@H]2C(=O)N2CCC[C@H]2C(=O)N(C)Cc2ccccc2)c1,4,2
COc1cccc(C(=O)N2CCC[C@H]2C(=O)N2CCC[C@H]2C(=O)NCc2ccncc2)c1,4,11
CC(C)NC(=O)C1C(c2ccccc2)=Nc2ccccc2N1C(=O)c1ccc(C(F)(F)F)cc1 (stereo not given),-6,3
Cc1ccccc1CN1C(=O)c2ccccc2C1c1nnnn1-c1ccc2c(c1)OCCO2 (stereo not given),-5,0
COC(=O)c1ccc2nc(-c3ccc(C)cc3)c(Cc3cccc(Cl)c3)n2c1,3,8
Cn1cc([C@]2(O)C(=O)Nc3ccc(F)cc32)c2ccccc21,0,1
COC(=O)C[C@@H]1OC[C@H](C)N1S(=O)(=O)c1ccc(C)cc1,3,-3
COc1ccc([C@H]2C[C@H](O)C[C@@H](CCn3cc(-c4ccccc4)nn3)O2)cc1,3,5
COc1ccc(Nc2c(CC(C)C)nc3nc(C)cc(C)n23)cc1,-11,0
COCCCN1C(=O)C(CC(=O)NCCc2ccccn2)CC(C(=O)N2CCCCCC2)=C1C (stereo not given),0,2
CCCCOCCCNC(=O)C[C@@H]1C[C@@]2(C(=O)OC)CCCCC=C2N(CCC2=CCCCC2)C1=O,-3,-2
Cc1cccc(C)c1NC(=O)C(C1CC1)n1c(-c2ccc(=O)[nH]c2)nc2ccccc21 (stereo not given),-5,2
CCOC(=O)[C@]12CCC=C1N(Cc1ccc(Cl)cc1Cl)C(=O)[C@H](CC(=O)NCCCN1CCCC1=O)C2,5,-10
COC(=O)[C@@]12C[C@@H](CC(=O)NCc3ccccc3)C(=O)N(Cc3cccc4ccccc34)C1=CCC(C)(C)C2,?,3
CC1=C(C(=O)N2CCCCCC2)CC(CC(=O)NCc2cccc3ccccc23)C(=O)N1CCC1=CCCCC1 (stereo not given),-5,4
COc1ccc(CCN2C(=O)c3ccccc3C2c2nnnn2C(C)C)cc1OC (stereo not given),10,7
CC(C)NC(=O)C1(C)CN(S(C)(=O)=O)CC(=O)N1Cc1cccs1 (stereo not given),24,7
O=C1NC[C@H](CCCCN2C[C@H](Cc3ccc(O)cc3)N(CCc3ccccc3)C(=O)C2=O)N(CCc2ccc(O)cc2)C1=O,7,-14
Cc1ccc(-c2nc3c4ccccc4ccn3c2Cc2ccccc2C(F)(F)F)cc1,-1,1
CC(C)(C)OC(=O)N1C(=O)[C@](OC(=O)c2ccccc2)(c2ccccc2)c2cccc(F)c21,-6,3
O=C1c2cccc3cccc(c23)C(c2nc3ccccc3[nH]2)N1C1CC1 (stereo not given),0,-4
CCOC(=O)[C@]12CCCC=C1N(Cc1ccc(Cl)cc1Cl)C(=O)[C@H](CC(=O)N1CCC(c3ccccc3)CC1)C2,-10,-1
CC(C)NC(=O)C1(C)CN(S(C)(=O)=O)CC(=O)N1CCCn1ccnc1 (stereo not given),2,5
CCC(C(=O)NC(C)(C)C)n1c(-c2ccccc2)nc2ccccc21 (stereo not given),2,10
O=C1NC[C@H](CCCCN2CCN(CCC3CCCCC3)C(=O)C2=O)N(CCC2CCCCC2)C1=O,15,-9
COc1ccc(C(=O)C(OP(=O)(OC)OC)c2ccccc2OC)cc1 (stereo not given),2,-17
Cc1cccc(C)c1NC(=O)C1(C)CSCC(=O)N1CCOc1ccccc1 (stereo not given),-4,-6
CCC(C(=O)NC1CCCC1)n1c(-c2ccnc3ccccc23)nc2ccccc21 (stereo not given),-2,2
O=C(C[C@H]1CC[C@@H](NC(=O)c2ccncc2)[C@@H](CO)O1)NCC1CC1,8,1
CCCCC[C@@H](C)N1C[C@H](COCc2ccccc2)Oc2cc(N3CC[C@H](O)C3)ccc2S1(=O)=O,-13,-7
O=C(NCCN1CCC(n2c(=O)[nH]c3ccccc32)CC1)c1ccccc1C(F)(F)F,0,2
COc1ccc(N2C(c3ccsc3)=Cc3cc4c(cc3C2c2c[nH]c3ccccc23)OCO4)cc1 (stereo not given),-12,-6
CCOC(=O)N1CCN(C(=O)C[C@@H]2C[C@@]3(C(=O)OCC)CCC=C3N(Cc3ccc4c(c3)OCO4)C2=O)CC1,-2,1
CCC(C(=O)NC(C)(C)C)n1c(-c2ccc3c(c2)OCO3)nc2ccccc21 (stereo not given),0,3
O=C1N(Cc2ccccc2)c2ccc(Br)cc2[C@]12C[C@H](O)CO2,-5,-4
Cc1cccc(C)c1NC(=O)C(c1ccc(-c2ccccc2)cc1)n1c(=O)c(-c2ccco2)nc2ccccc21 (stereo not given),-15,-2
O=C1NC[C@@H](CCCCN2C[C@H](Cc3ccccc3)N(Cc3ccccc3)C(=O)C2=O)N(Cc2ccccc2)C1=O,-8,2
CN1C(=O)C(c2cn(C)c3ccccc23)(c2cn(C)c3ccccc23)c2cc(F)ccc21,-9,-5
CC(C)=CCC[C@H](C)CC1Cc2[nH]c(=S)[nH]c(=O)c2C(c2ccc(Cl)cc2)O1 (stereo not given in full),-2,-22
CC(C)NC(=O)C1(C)CSCC(=O)N1Cc1cccc(F)c1 (stereo not given),9,3
CC(C)C[C@@H](COCc1ccc(Cl)cc1)N1CCN(C(=O)c2ccc(Cl)cc2Cl)CCC1=O,1,0
CCCCCCCCN1C(=O)[C@H](CC(=O)N2CCC(c3ccccc3)CC2)C[C@@]2(C(=O)OC)CCCCC=C12,-2,1
O=S1(=O)CC(N2CC=CC2)CN1Cc1cn(Cc2cccc(Cl)c2)nn1 (stereo not given),2,5
CCCCn1nnnc1C(c1cc2ccccc2o1)N1CCN(c2ccncc2)CC1 (stereo not given),-6,-1
COc1ccc(C(=O)N(c2c(C)cccc2C)C(COC(C)=O)COC(C)=O)cc1,7,1
CCOC(=O)C(Cc1ccc(O)cc1)NC(=O)c1cc2c(cn1)[nH]c1ccccc12 (stereo not given),1,3
